TRPML1 ag: agonists of human TRPML1 channel. Q9GZU1. TRPML1-expressing cells, Ca2+ dye fluorescence, FDSS; host cell line not named in the record; reference of the full effect not given here. activation, % (concentration not given with the values). 410,000 tested, 0.12% active; in the data active = activation above about 50%; inconclusive = about 30% to 50%; inactive = below about 30%; further: 0% is about no effect; the text of the record puts the active cut at 80%
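In this qHTS format, compounds were pin-transferred onto Ca8-dye-loaded TRPML1-DL cells induced with Tet overnight, and intracellular Ca2+ fluorescence was recorded kinetically for 110 s after a 10 s baseline. A subsequent 4uM final 54-4 (EC80) addition followed by a second 110 s read served as the antagonist phase.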
TRPV1 potentiator: human TRPV1 potentiation; Q8NER1; TRPV1-expressing cells, Fluo-8 calcium influx, capsaicin EC20 potentiation; host cell line not named in the record; control for the full effect not named in the record; potentiation, % at 8.33 µM; 320,000 tested, 0.02% active; AID 540277; active means potentiation above 80%; inconclusive means 30% to 80%; inactive means below 30%; further: 0% is about no effect
Target sequence (Q8NER1 whole entry, looked up): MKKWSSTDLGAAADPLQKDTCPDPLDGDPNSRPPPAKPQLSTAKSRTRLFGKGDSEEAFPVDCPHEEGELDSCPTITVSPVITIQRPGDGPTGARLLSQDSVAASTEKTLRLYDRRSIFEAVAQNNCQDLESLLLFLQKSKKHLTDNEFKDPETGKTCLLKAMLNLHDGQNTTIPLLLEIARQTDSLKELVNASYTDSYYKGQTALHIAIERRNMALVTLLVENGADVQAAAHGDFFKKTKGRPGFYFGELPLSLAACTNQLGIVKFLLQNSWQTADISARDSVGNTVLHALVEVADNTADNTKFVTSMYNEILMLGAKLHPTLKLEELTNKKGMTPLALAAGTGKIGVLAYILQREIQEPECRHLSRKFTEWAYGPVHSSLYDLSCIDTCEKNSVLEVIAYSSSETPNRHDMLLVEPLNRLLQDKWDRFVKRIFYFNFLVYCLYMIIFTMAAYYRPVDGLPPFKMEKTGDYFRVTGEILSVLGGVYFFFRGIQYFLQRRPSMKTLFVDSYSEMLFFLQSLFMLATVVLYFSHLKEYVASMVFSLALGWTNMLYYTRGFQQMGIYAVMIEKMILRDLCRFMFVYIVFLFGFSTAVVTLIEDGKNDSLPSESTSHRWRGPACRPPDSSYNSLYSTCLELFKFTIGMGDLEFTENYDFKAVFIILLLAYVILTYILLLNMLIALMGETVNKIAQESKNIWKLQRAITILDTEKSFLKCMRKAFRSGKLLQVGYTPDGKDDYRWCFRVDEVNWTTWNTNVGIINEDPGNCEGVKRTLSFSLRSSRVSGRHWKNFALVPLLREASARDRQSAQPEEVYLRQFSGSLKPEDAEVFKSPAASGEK
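Fluo-8 calcium influx in TRPV1-expressing cells, kinetic read (ex 480/em 520 nm). Compound added and read 3 min for agonist activity, followed by capsaicin at EC20 final and 2 min further read for enhancement.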
ClpP mod: qHTS Assay for Activators of ClpP. ATP-dependent Clp protease proteolytic subunit (Bacillus subtilis (strain 168)), P80244. purified B. subtilis ClpP, FRET peptide cleavage, 20 min. Potency, µM (series often up to 57.5 µM), without a hit: at the highest dose activity change, negative = active. 340,000 tested, 1.9% active; active = well fitted falling curve with a large enough effect; inconclusive = small, poorly fitted or top-dose-only effect; inactive = no such curve, though single readings can be large or run the other way; further: potency means the concentration at half of the fitted maximal effect; the source files actives as falling curves though it sought activators and does not explain the sign; nearly all actives have a fitted effect of over 65% in size; many hits overshoot -100%
Target sequence (P80244 whole entry, looked up): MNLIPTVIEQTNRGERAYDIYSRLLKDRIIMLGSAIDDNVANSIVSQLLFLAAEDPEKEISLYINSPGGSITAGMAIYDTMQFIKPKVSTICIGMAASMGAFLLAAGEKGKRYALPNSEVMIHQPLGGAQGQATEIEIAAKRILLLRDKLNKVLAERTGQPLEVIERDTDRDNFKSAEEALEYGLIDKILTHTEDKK
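FRET quenching reversal measured ClpP activation: 10 microg/mL B. subtilis ClpP at pH 8 with the FRET-FV decapeptide, read at 430 nm after 320 nm excitation. The 20-min minus 0-min signal was scaled between DMSO/no-enzyme wells and ADEP (5.8 microM final).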
TRPML1 blocker: blocks the human TRPML1 channel. TRPML1-inducible cells, Ca2+ dye fluorescence, FDSS; active compounds read low; inhibition of EC80 agonist-evoked calcium signal. activity change, negative = inhibition, % (test concentration not listed). AID 624415. 390,000 tested, 0.02% active. Q9GZU1; in the data active means activity change below about -50%; inconclusive means about -30% to -50%; inactive means above about -30%;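 further: stimulus is agonist 54-4 at its EC80 concentration; on the % scale 0 is the no-effect control and ±100 the full control effect; compound concentration not given in the record; the text of the record puts the active cut at -80%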
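TRPML1-DL cells, Tet-induced overnight (~16 h, 37 °C) at 1,500 cells/well, were loaded with Ca8 no-wash dye plus quencher for 45-90 min at room temperature. Compounds were pinned during FDSS kinetic reading; agonist 54-4 at EC80 (4 uM final) then added.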
PINK1 expr mod: modulators of PINK1 expression; 410,000 tested, 0.2% active; Potency, µM (highest dose often 76.6 µM), for the others: top-dose activation (PINK1 increase), actives largely listed as activators; AID 624263; PINK1 immunofluorescence, high-content cytometry, 24 h; active = well fitted activation curve with a large enough effect; inconclusive = small, poorly fitted or top-dose-only effect; inactive = flat fitted curve, though single readings scatter; cell line not stated here;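 further: potency means the concentration at half of the fitted maximal effect; % of control where 0% means no effect; nearly all actives have a fitted effect of over 65% in size; a mitochondrial uncoupler was the plate control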
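Decision-based qHTS: stable cells, 24 h exposure to five compound concentrations, CCCP as control. Fixed cells stained for PINK1 plus nuclear, mitochondrial and cell markers, cytometer read.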
Sfp PPTase inh: Sfp phosphopantetheinyl transferase inhibition | Biochemical Sfp PPTase activity, qHTS | Potency, µM, without a hit: max response, negative = inhibition, usual class: inhibitors | 310,000 tested, 3.5% active | AID 1490; active means well fitted inhibition curve with a large enough effect; inconclusive means small, poorly fitted or top-dose-only effect, or another doubt; inactive means no such curve, though single readings can be large or run the other way;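 further: the enzyme is Sfp with the accession as filed and its product quenches rhodamine fluorescence; potency means the concentration at half of the fitted maximal effect; 0% = enzyme reaction without inhibitor and -100% = no enzyme wells; top concentration of the series not given in the record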
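After 15 min at room temperature with compound, 15 nM Sfp received 5 uM rhodamine-CoA plus 12.5 uM BHQ-2-ybbR (50 mM Hepes pH 7.6, 10 mM MgCl2). Rate came from the fluorescence difference over 30 min, ex 525/em 598 nm.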
Menin-MLL FL inh: displaces fluorescein MLL peptide from human menin. Fluorescence polarization, fluorescein-MLL peptide displacement from menin. FP activity change, % at 61.4 µM. 290,000 tested, under 10 active; inconclusive = falling polarisation curve, or a change in total fluorescence; inactive = total fluorescence flat and polarisation flat or rising; no compound was filed as active; the % refers to the polarisation; negative = inhibition;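 further: % of control where 0% means no effect; inhibitors lower the polarisation; unlabelled MLL peptide was the positive control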
Active calls of the source: *; ? = inconclusive; nt = not tested or not shown; & = joins results of further samples; [ ] = another dose, or the depositor's remark.

| No. | SMILES | TRPML1 ag | TRPV1 potentiator | ClpP mod | TRPML1 blocker | PINK1 expr mod | Sfp PPTase inh | Menin-MLL FL inh |
| --- | --- | --- | --- | --- | --- | --- | --- | --- |
| 1 | CCOC(=O)Cc1csc(SCC(=O)Nc2cc(C)ccc2OC)n1 | -0.9 | 10.8 | nt | -9.1 | 1.1% | 7.7% | -0.7 |
| 2 | CCOc1ccc(NC(=O)COC(=O)Cn2cnc3ccccc32)cc1 | 0.5 | nt | -1.3% | -11.2 | 0.3% | nt | nt |
| 3 | C/C(=N\N1CCN(C2c3ccccc3-c3ccccc32)CC1)c1ccncc1 | 0.0 | 5.3 | 1.1% | 6.5 | -0.3% | -3.7% | 4.0 |
| 4 | Cn1cc(/C=C2\SC(=O)N(c3ccccc3)C2=O)c2ccccc21 | 0.8 | 23.0 | -0.8% | -8.0 | ? | -21.8% | 9.9 |
| 5 | Cc1cc(C)nc(NS(=O)(=O)c2ccc(NC(=O)c3cc(-c4ccccc4)nc4ccccc34)cc2)n1 | -0.3 | 5.3 | 0.4% | 71.5 | -1.5% | 3.7% | 8.6 |
| 6 | COc1ccc(OC)c(NC(=O)CN(C)S(=O)(=O)c2ccc3[nH]c4c(c3c2)CCCC4)c1 | 2.1 | nt | ? | -3.4 | -0.1% | nt | nt |
| 7 | C#Cc1cccc(-n2nnc(C(=O)OC)c2-c2ccccc2)c1 | -0.8 | 7.6 | ? | 6.7 | 0.0% | 2.3% | 2.6 |
| 8 | COc1ccc(C(=O)NCC(=O)N2CCc3ccccc3C2)cc1 | 1.9 | 0.5 | nt | -10.1 | -1.4% | 15.2% | -1.3 |
| 9 | COc1ccccc1CN1CC2(CCN(S(C)(=O)=O)CC2)C1 | nt | nt | nt | nt | 0.2% | 11.7% | -1.7 |
| 10 | Cc1ccccc1N(C(=O)c1snc(C(N)=O)c1N)C(C(=O)NCC1CCCO1)c1ccc(N(C)C)cc1 (configuration not stated) | -0.1 | -2.7 | nt | -9.7 | 1.2% | -0.1% | nt |
| 11 | Cc1cnc(CNc2ncnc3ccc(-c4ccccc4Cl)cc23)cn1 | nt | nt | nt | nt | -0.1% | -22.9% | -0.7 |
| 12 | CC1(C)CC(NC(=O)COc2ccccc2Cl)CC(C)(C)N1 | 0.0 | -0.4 | -3.1% | 2.9 | -0.3% | 10.9% | -1.6 |
| 13 | CCOc1ccc(C(=O)Nc2cccc(-c3ccc(N4CCOCC4)nn3)c2)cc1OCC | 0.8 | -4.3 | -7.7% | -9.1 | 7.6% | nt | nt |
| 14 | O=C(Nc1ccccc1Cl)c1cc2c(-c3ccccc3)nn(-c3ccccc3)c2s1 | 4.6 | nt | ? | 1.8 | 4.1% | nt | nt |
| 15 | COc1cccc(-c2nc(NCc3ccccc3)c3ccccc3n2)c1O | -0.4 | -2.8 | 1.6% | -15.5 | 3.8% | -16.7% | ? |
| 16 | CCOC(=O)c1c(NC(=O)CN2CCN(C(=O)c3ccco3)CC2)sc(C)c1C | 0.8 | -14.0 | -6.0% | 16.6 | -2.6% | -0.1% | nt |
| 17 | CCn1c(=O)cc(O)c2ccccc21 | -0.5 | -0.1 | ? | 9.0 | 0.2% | -1.4% | 1.7 |
| 18 | CCOc1ccc(S(=O)(=O)N2CCC(C(=O)NCc3ccco3)CC2)cc1 | 1.0 | 10.5 | -5.8% | 10.9 | 0.0% | 5.6% | nt |
| 19 | COc1c2c(c(OC)c3c1c(=O)c1ccccc1n3C)OCO2 | 0.6 | nt | -8.0% | 4.4 | -2.0% | nt | nt |
| 20 | COc1ccc(OC(=O)N(C)C[C@H]2OCc3cn(nn3)CCCC(=O)N([C@H](C)CO)C[C@@H]2C)cc1 | -0.2 | nt | -0.3% | 16.0 | 0.3% | nt | nt |
| 21 | Cc1ccc(S(=O)(=O)N2CC(C(=O)O)=CC[C@H]2c2ccc(Cl)cc2)cc1 | -0.2 | 3.8 | -2.1% | 13.5 | -1.0% | nt | nt |
| 22 | S=C(NCC1COc2ccccc2O1)Nc1ccccc1 (configuration not stated) | 0.2 | 8.1 | -9.6% | 20.5 | -0.9% | 8.3% | 0.4 |
| 23 | COc1cc(/C=N/NC(=O)c2ccc(CSc3nc4ccccc4[nH]3)cc2)cc(OC)c1OC | 0.6 | 24.1 | ? | 13.3 | 6.1% | 8.6% | -0.1 |
| 24 | CCc1ccc2oc(C(=O)N3CCN(c4ccccc4OC)CC3)cc(=O)c2c1 | -1.1 | -4.8 | -0.6% | 12.2 | 15.8% | -1.4% | -1.6 |
| 25 | CCCCCCc1c(O)nc(SCCN(C)C)[nH]c1=O | -0.5 | 3.5 | -0.2% | -22.8 | 1.0% | 9.9% | 4.0 |
| 26 | O=C(CSc1nnc(-c2ccccc2)c(-c2ccccc2)n1)NCC1CCCO1 (configuration not stated) | 0.0 | nt | nt | -13.3 | 1.6% | nt | nt |
| 27 | CCOc1cccc(C2NC(=S)NC(C)=C2C(=O)Nc2ccccc2)c1 (configuration not stated) | 0.0 | 7.7 | -1.3% | 19.9 | 7.1% | 13.8% | 6.2 |
| 28 | Cc1ccc(S(=O)(=O)NN=C2C3CC4CC(C3)CC2C4)cc1 | -0.3 | -6.0 | 4.9% | -8.0 | 0.4% | nt | nt |
| 29 | COc1cc(/C=C\C(=O)NCc2ccc3[nH]c(C)cc3c2)cc(OC)c1OC | 0.3 | 1.0 | -9.8% | -8.8 | 5.0% | 3.5% | 3.5 |
| 30 | CCN1CCN(C(=O)c2ccc3c(c2)N(Cc2ccccc2)C(=O)c2ccccc2S3=O)CC1 (configuration not stated) | -0.7&0.3 | 2.0 | 1.5%&-28.9% | 9.8&-6.8 | -0.2%&2.4% | 2.3% | -1.7 |
| 31 | CC(NCC(O)COCc1ccc(Cl)cc1)c1ccccc1 (configuration not stated) | -0.7 | 6.8 | nt | -6.2 | 6.1% | 19.6% | -3.6 |
| 32 | CC(C)N(Cc1ccccc1)C(=O)CN1C(=O)NC2(CCCCCC2)C1=O | 0.4 | 1.4 | 2.3% | 1.2 | 4.9% | nt | nt |
| 33 | Nc1nnc(-c2ccc(Cl)c([N+](=O)[O-])c2)s1 | 2.3 | -5.4 | 0.2% | -13.3 | 0.5% | -19.4% | -4.8 |
| 34 | CCOc1ccc(C(=S)NC2CCCCC2)cc1 | -0.7 | -7.4 | 0.1% | 25.0 | 2.1%[38.3 µM] | 6.0% | 6.8 |
| 35 | COC(=O)CC(=O)O[C@H]1C=C[C@@H](NC(=O)OC(C)(C)C)C1 | 0.1 | nt | 0.5% | 7.3 | -0.5% | nt | nt |
| 36 | Cc1cc2nc3ccc(N(C)C)cc3nc2cc1N | 2.2 | nt | 1.7% | -3.4 | 3.4% | nt | nt |
| 37 | CC(Oc1cccc(Cl)c1)C(=O)Nc1cc(=O)n(C)c(=O)n1C (configuration not stated) | 0.5 | 1.7 | 0.4% | 16.3 | 0.3%[38.3 µM] | 12.5% | 5.9 |
| 38 | CC(NS(=O)(=O)c1ccc(Br)cc1)C(=O)NCc1ccc2c(c1)OCO2 (configuration not stated) | -0.2 | 11.5 | nt | -3.5 | -1.3% | 13.7% | -4.8 |
| 39 | Cc1ccc(-c2ccc(=O)n(C(C)C(=O)Nc3ccccc3Cl)n2)cc1C (configuration not stated) | 2.0 | nt | -13.7% | 18.7 | 2.2% | nt | nt |
| 40 | COC(=O)c1sc2nc(CSc3ccc(Br)cc3)[nH]c(=O)c2c1C | -0.5 | -6.9 | -7.0% | -7.8 | 12.4% | -1.6% | ? |
| 41 | CC(C)[C@H](CN(N=O)[C@@H](Cc1ccccc1)CN(C)N=O)N(CCc1ccccc1)N=O | -0.4 | -7.9 | -4.1% | 38.2 | 1.6% | 22.6% | -2.5 |
| 42 | N#C/C(=C\c1ccc(OCCN2CCOCC2)cc1)C(=O)Nc1ccccc1 | 0.0 | -7.6 | -2.7% | -12.7 | 4.2% | -1.9% | 6.2 |
| 43 | Cc1ccccc1-c1nc(CN2CCC(C(=O)NC3CCCCC3)CC2)c(C)o1 | -0.2 | 8.2 | 0.7% | 13.3 | 0.2% | 22.0% | 2.8 |
| 44 | Cc1cc(OCCn2cnc3ccccc3c2=O)cc(C(C)C)c1 | -0.7 | -12.7 | -1.8% | 9.8 | 8.2% | 6.5% | 5.5 |
| 45 | CCCS(=O)(=O)Nc1ccc(-c2ccc3nnc(C)n3n2)cc1 | nt | 27.9 | nt | nt | nt | -1.8% | -0.3 |
| 46 | O=C(Nc1ccno1)Nc1ccc(Cl)cc1Cl | 0.6 | nt | -0.8% | -0.1 | 0.5% | -13.2% | 8.3 |
| 47 | COc1ccccc1CCNC(=O)C(=O)NCC(c1ccco1)S(=O)(=O)c1cccs1 (configuration not stated) | 1.2 | nt | 0.1% | -3.5 | -0.1% | nt | nt |
| 48 | O=C(Cn1c2ccccc2c(=O)c2cc([N+](=O)[O-])ccc21)Nc1ccccc1Cl | 2.1 | 3.8 | -1.0% | 13.9 | -0.6% | -20.5% | -0.8 |

7 records drawn at random from the list so far, as already listed:
| No. | SMILES | TRPML1 ag | TRPV1 potentiator | ClpP mod | TRPML1 blocker | PINK1 expr mod | Sfp PPTase inh | Menin-MLL FL inh |
| --- | --- | --- | --- | --- | --- | --- | --- | --- |
| 29 | COc1cc(/C=C\C(=O)NCc2ccc3[nH]c(C)cc3c2)cc(OC)c1OC | 0.3 | 1.0 | -9.8% | -8.8 | 5.0% | 3.5% | 3.5 |
| 47 | COc1ccccc1CCNC(=O)C(=O)NCC(c1ccco1)S(=O)(=O)c1cccs1 (configuration not stated) | 1.2 | nt | 0.1% | -3.5 | -0.1% | nt | nt |
| 48 | O=C(Cn1c2ccccc2c(=O)c2cc([N+](=O)[O-])ccc21)Nc1ccccc1Cl | 2.1 | 3.8 | -1.0% | 13.9 | -0.6% | -20.5% | -0.8 |
| 34 | CCOc1ccc(C(=S)NC2CCCCC2)cc1 | -0.7 | -7.4 | 0.1% | 25.0 | 2.1%[38.3 µM] | 6.0% | 6.8 |
| 31 | CC(NCC(O)COCc1ccc(Cl)cc1)c1ccccc1 (configuration not stated) | -0.7 | 6.8 | nt | -6.2 | 6.1% | 19.6% | -3.6 |
| 28 | Cc1ccc(S(=O)(=O)NN=C2C3CC4CC(C3)CC2C4)cc1 | -0.3 | -6.0 | 4.9% | -8.0 | 0.4% | nt | nt |
| 43 | Cc1ccccc1-c1nc(CN2CCC(C(=O)NC3CCCCC3)CC2)c(C)o1 | -0.2 | 8.2 | 0.7% | 13.3 | 0.2% | 22.0% | 2.8 |

Screens as filed in PubChem.
